Arbovirus inh: antivirals against arbovirus infection, primary screen, cell-based, full library, 10K replicate subset; inhibition, % at 10 µM; 200,000 tested, 0.37% active; arbovirus infection cell-based antiviral screen; AID 1251, 2008;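 active = inhibition from about 30%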;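 also: bluetongue infection of BSR cells; cell survival read as ATP light after 72 h; 0% = infected wells without compound and 100% = uninfected wells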
YopH PTP inh: YopH tyrosine phosphatase inhibitors, primary screen, biochemical, fluorescence Ex485/Em525. YopH tyrosine phosphatase [Yersinia enterocolitica]. inhibition, %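 (about 10 µM by stock and volumes)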. 140,000 tested, 0.16% active. AID 898, 2007;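 active = inhibition of 50% or more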;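 also: controls were vehicle for no effect and minimum signal wells for full effect; inactives centre near -20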
Mtb betalactam: beta-lactam sensitization of Mtb H37Rv, H37Rv; M. tuberculosis H37Rv growth with meropenem, percent inhibition; hits of this screen are not shown here; 330,000 tested, 0.27% active; AID 434955, 2010; inhibition, % at 25 µM;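 active = about 74% or more and at least 40 points above the plate without the antibiotic, then above 30% in a dose series; inconclusive = first-round hits that could not be retested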;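 also: growth measured after seven days incubation then overnight dye step; 0% = bacteria only wells and 100% = bacteria with antibiotic; twin plates without the antibiotic show which effects depend on it; some results filed as inactive read as strong as hits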
Mtb H37Rv: M. tuberculosis H37Rv growth inhibitors, H37Rv strain (AID 1626); inhibition, % at 10 µM; hits with a dose series show IC50 in µM; 220,000 tested, 0.95% active; M. tuberculosis H37Rv growth inhibition; higher % means a stronger effect;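 active = confirmed in a dose series; inconclusive = inhibition above 80% but not taken into the dose series; inactive = below 80% or under 30% at every dose of the series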;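 also: bacteria incubated seven days before Alamar blue readout; 0% = bacteria only wells and 100% = bacteria with antibiotic wells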
RecA splice inh: Mtb RecA intein splicing inhibitors, primary screen, biochemical, fluorescence, HTS | AID 2221, 2009 | inhibition, %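 (about 9 µM by stock and volumes)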 | cell-free RecA intein splicing | 290,000 tested, 0.75% active | Protein RecA (Mycobacterium tuberculosis (strain ATCC 25618 / H37Rv)), P9WHJ3; in the data active = inhibition above about 30%; inconclusive = no clear call, values can overlap the other calls;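 also: 0% = vehicle wells and 100% = reference inhibitor control wells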
Target sequence (P9WHJ3 whole entry, looked up, canonical isoform): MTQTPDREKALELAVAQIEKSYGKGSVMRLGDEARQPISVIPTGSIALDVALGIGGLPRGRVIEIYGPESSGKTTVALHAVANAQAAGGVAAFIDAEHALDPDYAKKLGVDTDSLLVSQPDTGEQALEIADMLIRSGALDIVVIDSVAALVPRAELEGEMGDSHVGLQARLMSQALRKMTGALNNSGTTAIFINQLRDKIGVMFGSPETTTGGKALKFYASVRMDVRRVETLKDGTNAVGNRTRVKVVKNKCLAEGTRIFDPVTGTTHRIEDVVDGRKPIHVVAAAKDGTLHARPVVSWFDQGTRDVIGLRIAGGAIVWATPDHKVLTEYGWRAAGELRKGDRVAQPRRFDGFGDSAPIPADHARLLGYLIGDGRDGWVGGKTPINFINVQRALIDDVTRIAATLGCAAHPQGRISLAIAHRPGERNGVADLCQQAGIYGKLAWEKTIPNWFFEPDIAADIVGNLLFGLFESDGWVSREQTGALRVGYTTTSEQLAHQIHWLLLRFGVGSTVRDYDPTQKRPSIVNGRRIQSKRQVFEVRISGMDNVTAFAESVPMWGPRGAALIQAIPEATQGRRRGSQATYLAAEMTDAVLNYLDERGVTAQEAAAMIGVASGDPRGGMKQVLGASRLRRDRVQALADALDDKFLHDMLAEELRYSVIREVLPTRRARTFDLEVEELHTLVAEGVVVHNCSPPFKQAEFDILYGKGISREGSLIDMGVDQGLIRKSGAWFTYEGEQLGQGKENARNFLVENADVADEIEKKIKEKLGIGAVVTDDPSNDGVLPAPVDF
Arbovirus inh repeat: recorded beside Arbovirus inh, whose call it bears; inhibition, %; measured here: 10K subset replicate screen; many hits read low in the repeat;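 first of two repeat runs on a subset; 0% = infected and 100% = uninfected wells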
* marks the source's active call; other numbers are inactive results; u = inconclusive; x = no result given. Not all compounds are listed (hit frequency here may not be typical).

SMILES	Arbovirus inh	YopH PTP inh	Mtb betalactam	Mtb H37Rv	RecA splice inh	others
N#Cc1c(Nc2ccccc2)sc(C(=O)C2CC2)c1N	-2	-28	3	-5%	x
COc1ccc(C2=NS(=O)(=O)N(C)C(C(=O)NCc3ccc4c(c3)OCO4)=C2)cc1OC	x	x	0	x	1.2
CCCN1CCN(CCCNC(=O)Cn2ncc3c4ccccc4n(C)c3c2=O)CC1	9	-36	-4	1%	-4.1	Arbovirus inh repeat=0
Cc1cc(NC(=O)Cn2nc(C)c([N+](=O)[O-])c2C)no1	0	x	5	3%	1.4
O=C1CC(=C(c2ccccc2)c2ccccc2)C(=O)N1CCCCN1CCN(c2ccccc2)CC1	-21	0	99	18µM*	-0.3
CCOC(=O)c1c(C)[nH]c(C(=O)N2CCN(C(=O)OCC)CC2)c1C	x	x	7	x	-1.0
Cc1c(NC(=O)C(C)OC(=O)c2nc(Cl)ccc2Cl)c(=O)n(-c2ccccc2)n1C (stereo unspecified)	x	x	3	x	1.5
C#CCOCCOCCOCCNc1nc(N2CCOCC2)nc(N2CCN(C(=O)[C@H](Cc3cc4ccccc4[nH]3)n3cc([C@@H](N)C(C)CC)nn3)CC2)n1 (stereo partly specified)	0	x	-10	5%	-3.6
CC(NC(=O)C1CCCO1)c1ccccc1 (stereo unspecified)	3	-6	9	-5%	5.7
O=[N+]([O-])c1ccc(Oc2cccc(C(F)(F)F)c2)nc1	x	x	-3	-3%	1.0
CC(=O)N1CCc2cc(S(=O)(=O)CCC(=O)N(C)Cc3ccco3)ccc21	x	x	-10	x	-2.3
O=C(Nc1ccccc1O)N1c2ccccc2Sc2ccccc21	x	x	8	x	9.3
CS(=O)(=O)N(CC(=O)Nc1ccccc1-c1ccccc1)c1ccccc1	4	x	6	1%	1.2
COC(=O)c1ccc(C)c(NC(=O)CN(c2ccccc2)S(=O)(=O)N(C)C)c1	-2	x	-6	1%	5.5
COc1ccc(OC)c(N=c2oc3c(OC)cccc3cc2C(=O)NCc2ccco2)c1	x	x	6	-8%	-1.9
COc1cccc2cc(C(=O)NNC(=O)c3ccc(Br)cc3)c(=O)oc12	5	x	29	u	-0.8
O=C(NN1C(=O)c2ccccc2NC1c1ccc([N+](=O)[O-])o1)c1ccc([N+](=O)[O-])cc1 (stereo unspecified)	4	x	90	u	-5.6
COc1cccc(Nc2nc3ccccc3n3cnnc23)c1	-1	-35	-8	7%	-0.5
Cc1nc(-c2ccccc2)nc2n[nH]c(N)c12	x	x	4	x	0.3
CC(=O)CSc1nnc(-c2cnccn2)n1-c1ccccc1	5	-21	x	x	x
CN1CCN(C(=O)OC2c3nccnc3C(=O)N2c2ccc(Cl)cn2)CC1 (stereo unspecified)	4	-49	0	x	3.3
S=c1[nH]nc(-c2ccccn2)n1/N=C/c1ccccc1	4	-24	1	-12%	-0.6
O=C(Nc1ccc2c(c1)CCC2)c1cccc(F)c1	-5	-2	-5	3%	1.4
O=C(NCc1ccncc1)c1cc(C(=O)C2CCCCC2)c[nH]1	3	x	29	2%	-1.4
CCCCC(=O)OCC(=O)c1[nH]c(C)c(C(C)=O)c1C	5	x	-5	12%	2.4
(cont.)
SMILES	Arbovirus inh	YopH PTP inh	Mtb betalactam	Mtb H37Rv	RecA splice inh	others
CN(Cc1cn(-c2ccccc2)nc1-c1ccc(Cl)cc1)C(=O)CCC(=O)O	11	-40	-9	2%	0.1
CCOc1ccccc1NS(=O)(=O)c1c[nH]c(C(=O)OC)c1	x	x	2	x	-2.5
Cc1cccc(N2CCN(C(=O)CC(NC(=O)c3ccccc3)c3ccccc3)CC2C)c1 (stereo unspecified)	4	-18	1	3%	0.8
Cc1cccc(OCCOC(=O)C2CCN(S(=O)(=O)c3cccs3)CC2)c1	0	-6	3	-3%	-3.2
O=C1CN(C(=O)c2ccccc2)C(c2ccccc2)c2cc(Cl)ccc2N1 (stereo unspecified)	x	x	10	x	2.3
C/C(=N\NC(=S)NC1CCCCC1)c1ccccc1	-5	-28	79	5%	0.5
CN1CCCN(C(=O)c2cccc3ccccc23)CC1	x	x	-8	x	0.6
O=C(/C=C/c1ccc2c(c1)OCO2)N1CCN(c2n[nH]c(=O)[nH]c2=O)CC1	x	x	-1	-15%	0.0
COc1cc2c(cc1OC)C1=C(C#N)CC/C(=N\S(=O)(=O)c3ccccc3)N1CC2	-1	x	-3	0%	3.2	Arbovirus inh repeat=0
CCOc1ccc(CNC(=O)CN2C(=O)CSc3ccc(S(=O)(=O)N4CCOCC4)cc32)cc1OC	x	x	6	x	-2.6
CC(=O)c1cccc(NC(=O)CSc2nnc(-c3ccc(S(=O)(=O)N4CCCC4)cc3)o2)c1	-1	-2	-2	2%	0.3
CCN(C(=O)COC(=O)c1cc(S(=O)(=O)N2CCOCC2)c(Cl)cc1Cl)C1CCS(=O)(=O)C1 (stereo unspecified)	-6	x	1	-8%	-0.7
CNS(=O)(=O)c1cccc(C(=O)NCC(C)(C)N2CCCCC2)c1	x	x	-4	x	-0.8
COc1cc(CNCCNC(=O)c2nonc2N)ccc1OCc1ccc(Cl)cc1	-36	x	7	-2%	2.8
COc1ccccc1OC(=O)c1ccc(SC)cc1OC	0	-44	99	7%	x
CC1CCN(S(=O)(=O)c2cc(C(=O)Nc3ccccn3)ccc2Br)CC1	x	x	-2	x	6.7
Cc1cc(-c2nnc(CCC(=O)N(C)CCc3ccccc3)o2)no1	x	x	-7	-2%	-1.3
O=C(CC1(O)C(=O)N(Cc2ccccc2Cl)c2ccccc21)c1ccco1 (stereo unspecified)	-10	-10	7	-4%	7.4
O=C(/C=C/c1ccco1)Oc1cc(Br)cc(/C=N/NC(=O)c2ccccc2O)c1	-24	-30	1	0%	-2.1
COc1ccc(/C=C2\SC(=O)N(CCC(=O)N(C)C3CCS(=O)(=O)C3)C2=O)cc1 (stereo unspecified)	x	x	2	x	1.2
CCOC(=O)c1c(NC(=O)C2CC(Cl)=CCC2C(=O)O)sc2c1CCCCC2 (stereo unspecified)	x	x	3	x	6.4
CC1CN(c2ccccc2)C(=O)CS1 (stereo unspecified)	0	-24	-1	2%	-0.5
O=C(O)c1ccccc1S(=O)(=O)CC(=O)N1CCCCC1	x	x	-7	x	-0.3
O=S1(=O)NC(CC2=CCCCC2)C2CCCCC2O1 (stereo unspecified)	x	x	-1	x	-0.3
CCC(C)[C@H](NC(=O)N1CCN(c2cccc(C(F)(F)F)c2)CC1)C(=O)OC (stereo partly specified)	2	-11	-14	-1%	1.3

Reprinted at random: 2 records from the list, in no set order.
SMILES	Arbovirus inh	YopH PTP inh	Mtb betalactam	Mtb H37Rv	RecA splice inh	others
Cc1c(NC(=O)C(C)OC(=O)c2nc(Cl)ccc2Cl)c(=O)n(-c2ccccc2)n1C (stereo unspecified)	x	x	3	x	1.5
Cc1nc(-c2ccccc2)nc2n[nH]c(N)c12	x	x	4	x	0.3

(continued)
SMILES	Arbovirus inh	YopH PTP inh	Mtb betalactam	Mtb H37Rv	RecA splice inh	others
CCOC(=O)NNC(=O)C12CC3CC(CC(C3)C1)C2	24	x	-9	-6%	-0.9
O=C(c1cc(-c2cccs2)nc2ccccc12)N1CCN(c2ccccc2)CC1	-8	x	24	12%	7.3
O=C1c2ccccc2NC(c2ccccc2)N1c1ccc(O)cc1 (stereo unspecified)	-6	-46	-4	-5%	1.2	Arbovirus inh repeat=-1
Nc1nc(CCl)nc(Nc2ccccc2)n1	23	x	97	31µM*	10
O=C(/C=C/c1ccc([N+](=O)[O-])cc1)NCCSc1ccccc1	5	-25	u	-1%	4.6
COc1ccccc1C(=O)NCCn1ccc2ccccc21	6	-51	60	3%	2.7
CCn1ncc(/C=C/C(=O)Nc2c(C)nn(CC)c2C)c1C	-2	-23	-6	-12%	3.8
FC(F)(F)c1ccccc1NC(=S)Nn1cnnc1	x	x	3	x	-0.7
O=C(Nc1ccc(NC(=O)c2cc3ccccc3o2)cc1)c1ccco1	x	x	-6	x	0.1
N/C(=N\OC(=O)CN1C(=O)c2ccccc2C1=O)c1ccc(Br)cc1	-3	x	9	3%	0.0
CCCCn1c(N)c(N(CC)C(=O)CCc2ccccc2)c(=O)[nH]c1=O	5	-30	1	2%	-0.6
COc1cc(OC)cc(C(=O)NCCOc2ccccc2)c1	4	-13	-2	-3%	4.2
CC1CN(C(=S)SCCN2C(=O)CCC2=O)CC(C)O1 (stereo unspecified)	-2	x	-12	-5%	x
COc1ccccc1NC(=S)N1CCCc2ccccc21	15	x	4	-4%	-3.3
CCOC(=O)C1CCN(C2CC(=O)N(c3ccc(OCC)cc3)C2=O)CC1 (stereo unspecified)	2	-14	6	-11%	5.0
COc1ccc(NS(=O)(=O)c2ccc3nc(COc4ccc(C#N)cc4)[nH]c3c2)cc1	8	-28	u	12%	3.7
O=C(CSc1nc2ccccc2o1)NCC(=O)c1ccccc1	-6	-5	98	8.4µM*	-5.8
COCCNC(=O)C(OC(=O)c1ccco1)c1ccccc1F (stereo unspecified)	x	x	3	x	-0.4
CCOCCc1nnc(NC(=O)CSc2ccccc2)s1	8	6	-2	4%	-2.9

Copied from the listing for reference:
SMILES	Arbovirus inh	YopH PTP inh	Mtb betalactam	Mtb H37Rv	RecA splice inh	others
CNS(=O)(=O)c1cccc(C(=O)NCC(C)(C)N2CCCCC2)c1	x	x	-4	x	-0.8
COc1cc(CNCCNC(=O)c2nonc2N)ccc1OCc1ccc(Cl)cc1	-36	x	7	-2%	2.8
COc1ccccc1OC(=O)c1ccc(SC)cc1OC	0	-44	99	7%	x
CC1CCN(S(=O)(=O)c2cc(C(=O)Nc3ccccn3)ccc2Br)CC1	x	x	-2	x	6.7
Cc1cc(-c2nnc(CCC(=O)N(C)CCc3ccccc3)o2)no1	x	x	-7	-2%	-1.3
O=C(CC1(O)C(=O)N(Cc2ccccc2Cl)c2ccccc21)c1ccco1 (stereo unspecified)	-10	-10	7	-4%	7.4
O=C(/C=C/c1ccco1)Oc1cc(Br)cc(/C=N/NC(=O)c2ccccc2O)c1	-24	-30	1	0%	-2.1
COc1ccc(/C=C2\SC(=O)N(CCC(=O)N(C)C3CCS(=O)(=O)C3)C2=O)cc1 (stereo unspecified)	x	x	2	x	1.2
CCOC(=O)c1c(NC(=O)C2CC(Cl)=CCC2C(=O)O)sc2c1CCCCC2 (stereo unspecified)	x	x	3	x	6.4
CC1CN(c2ccccc2)C(=O)CS1 (stereo unspecified)	0	-24	-1	2%	-0.5
O=C(O)c1ccccc1S(=O)(=O)CC(=O)N1CCCCC1	x	x	-7	x	-0.3
O=S1(=O)NC(CC2=CCCCC2)C2CCCCC2O1 (stereo unspecified)	x	x	-1	x	-0.3
CCC(C)[C@H](NC(=O)N1CCN(c2cccc(C(F)(F)F)c2)CC1)C(=O)OC (stereo partly specified)	2	-11	-14	-1%	1.3
CCOC(=O)NNC(=O)C12CC3CC(CC(C3)C1)C2	24	x	-9	-6%	-0.9
O=C(c1cc(-c2cccs2)nc2ccccc12)N1CCN(c2ccccc2)CC1	-8	x	24	12%	7.3
O=C1c2ccccc2NC(c2ccccc2)N1c1ccc(O)cc1 (stereo unspecified)	-6	-46	-4	-5%	1.2	Arbovirus inh repeat=-1
Nc1nc(CCl)nc(Nc2ccccc2)n1	23	x	97	31µM*	10
O=C(/C=C/c1ccc([N+](=O)[O-])cc1)NCCSc1ccccc1	5	-25	u	-1%	4.6
COc1ccccc1C(=O)NCCn1ccc2ccccc21	6	-51	60	3%	2.7

Screens as filed in PubChem BioAssay.
